# A647 fluor = qHTS Assay for Spectroscopic Profiling in A647 Spectral Region; Compound fluorescence, A647 channel (570/671 nm), Tris buffer; max dye-equivalent concentration, M; 59,000 tested, under 10 active; AID 592, 2007; active means above 1 µM dye equivalent; inconclusive means 0.1 to 1 µM; inactive means 0.1 µM or less;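 further: values scaled relative to a standard on each plate; highest value over a series up to 38 µM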
#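 Each compound's intrinsic fluorescence at 570 nm excitation and 671 nm emission is measured across its concentration series in 100 mM Tris, pH 8.0, after 15 min at room temperature, and reported relative to an A647 curve.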
# A488 autofl = qHTS Assay for Spectroscopic Profiling in A488 Spectral Region | 0.1% of 59,000 active | max dye equivalency, M | compound autofluorescence, A488 spectral region, dye equivalency; hits give high values; active = above 10 nM dye equivalent; inconclusive = 1 to 10 nM; inactive = 1 nM or less; about half of its hits are not listed in these tables;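 further: highest value over a series up to 38 µM; compound alone in buffer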
#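 Readout is A488 dye-equivalent concentration, calibrated by a per-plate six-point Alexa 488 series. Compounds in 100 mM Tris buffer pH 8.0 were incubated 15 min at room temperature. Plates were imaged using 480 nm excitation/540 nm emission filters.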
# AID923 = qHTS Assay for Allosteric/Competitive Inhibitors of Caspase-1: Spectroscopic Profiling in AFC Spectral Region; compound fluorescence, AFC spectral region (405/520 nm); almost no hit is shown here; Potency, µM (titrated, usually from 57.5 µM), for inactives: at the highest dose fluorescence increase, hits mostly activators; 1.1% of 75,000 active; active means well fitted activation curve with a large enough effect; inconclusive means small, poorly fitted or top-dose-only effect;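 further: potency means the concentration at half of the fitted maximal effect; 0% is about no effect; scaled to a free AFC standard on each plate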
#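 Titrations up to 57 uM read every 20 sec for 3 min (405/520 nm) with 50 nM caspase 1 and 5 uM Ac-WEHD-AFC, pH 7.5 HEPES buffer. Fluorescence-vs-time intercept gave baseline, scaled against on-plate AFC standard.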
# Resorufin autofl = qHTS Assay for Spectroscopic Profiling in Resorufin Spectral Region. Compound fluorescence, resorufin region 547/598 nm, buffer; hits give high values. max dye-equivalent concentration, M. 0.04% of 59,000 active; active = above 10 nM dye equivalent; inconclusive = 1 to 10 nM; inactive = 1 nM or less; a few of its hits are not listed in these tables; further: highest value over a series up to 38 µM
#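 Compounds in 100 mM Tris, pH 8.0, incubated 15 min at room temperature, then fluorescence read at 547 nm excitation/598 nm emission. Signal converted to dye-equivalent concentration via an on-plate six-point resorufin standard curve, per compound concentration.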
# TSHR ag = qHTS Assay for Agonists of the Thyroid Stimulating Hormone Receptor; AID 926, 2007; Potency, µM (doses to about 57.1 µM), without a hit: top-dose activation, hits mostly activators; Thyrotropin receptor (Homo sapiens), P16473; 0.48% of 73,000 active; HEK293-CNG-TSHR cells (CNG channel as cAMP sensor), membrane potential dye, cAMP; active = well fitted activation curve of enough size with the parental cells flat; inconclusive = any curve in the parental cells; inactive = parental cells flat and receptor cells flat or falling; further: potency means the concentration at half of the fitted maximal effect; % of control where 0% means no effect; weak receptor curves with flat parental cells got no call and are not listed
# Target sequence (P16473 whole entry, looked up): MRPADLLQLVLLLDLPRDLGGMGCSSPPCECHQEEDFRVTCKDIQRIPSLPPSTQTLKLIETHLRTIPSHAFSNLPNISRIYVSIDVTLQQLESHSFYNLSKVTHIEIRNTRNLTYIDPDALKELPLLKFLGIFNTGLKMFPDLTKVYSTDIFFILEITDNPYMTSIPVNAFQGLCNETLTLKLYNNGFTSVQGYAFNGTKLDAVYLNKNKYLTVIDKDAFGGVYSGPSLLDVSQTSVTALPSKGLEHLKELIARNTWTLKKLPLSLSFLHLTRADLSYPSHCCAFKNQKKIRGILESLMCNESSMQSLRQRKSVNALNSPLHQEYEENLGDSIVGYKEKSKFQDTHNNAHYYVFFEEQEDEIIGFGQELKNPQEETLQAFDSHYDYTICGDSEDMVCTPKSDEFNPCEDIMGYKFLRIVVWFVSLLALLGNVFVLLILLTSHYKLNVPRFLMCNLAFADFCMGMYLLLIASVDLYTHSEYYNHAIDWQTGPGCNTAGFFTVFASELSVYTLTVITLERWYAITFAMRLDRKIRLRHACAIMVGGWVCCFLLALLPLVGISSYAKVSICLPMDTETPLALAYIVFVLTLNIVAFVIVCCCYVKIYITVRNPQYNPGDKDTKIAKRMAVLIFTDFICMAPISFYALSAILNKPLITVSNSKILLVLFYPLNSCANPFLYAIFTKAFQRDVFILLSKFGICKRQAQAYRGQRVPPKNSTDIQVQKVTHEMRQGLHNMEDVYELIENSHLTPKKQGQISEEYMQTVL
#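 cAMP rise detected as CNG-channel membrane depolarization by fluorescent dye (emission 590 nm), 30 min after compound, following 60 min dye loading containing 100 uM RO 20-1724 at room temperature. Cells: TSHR/CNG HEK 293, with parental CNG HEK 293 as control.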
# * = called active by the depositor; i = inactive; ? = inconclusive; nt = not tested or not shown; & = joins results of further samples; [ ] = another dose, or the depositor's remark. These rows are one share of the data; count on the stated rates, not on these rows.
SMILES,A647 fluor,A488 autofl,AID923,Resorufin autofl,TSHR ag
CCOc1cc2c(cc1OCC)C(c1ccc(O)c(OC)c1)NCC2 (stereo not drawn),nt,nt,0.8%,nt,10.1%
O=C(CNC(=O)c1ccco1)NCC(=O)OCc1ccccc1Br,2.55e-08,i,-0.5%,i,18.3%
CCOC(=O)C1CCN(C(=O)C2CCCCC2)CC1,7.3e-09,i,0.8%,i,10.1%
CCN1C(=O)CC(C(=O)Nc2ccc(F)cc2)SC1=Nc1cccc(OC)c1 (stereo not drawn),3.29e-08,i,0.2%,i,?
CN1CCN(c2cc(=O)n(C3CCCCC3)c(=O)[nH]2)CC1,nt,nt,0.7%,nt,?
Cc1ccc(SCc2cc(=O)n3[nH]cnc3n2)cc1,1e-09,i,-0.8%,i,15.7%
CC(=O)c1cccc(NC(=O)Nc2ccc3c(c2)N(C)C(=O)CS3)c1,2.78e-08,i,-0.9%,i,5.2%
CCOC(=O)C1CCCN(Cc2nc(N)nc(Nc3ccc(Cl)cc3)n2)C1 (stereo not drawn),1e-09,i,4.2%,i,-5.0%
Cc1cc2nc(-c3ccc(NC(=O)C(C)C)cc3)oc2cc1C,nt,nt,1.7%,nt,-13.2%
Cc1cc(Oc2ccc(-c3ccccc3)cc2)n2ncnc2n1,4.51e-08,i,-1.5%,i,16.6%
COC(=O)c1ccc(CCc2cc(O)ccc2O)cc1,4.3e-08,i,-4.7%[11.5 µM],i,1.2%[11.4 µM]
N#Cc1c(SCC(=O)N2CCCCC2)nsc1SCC(=O)N1CCCCC1,3.99e-08,i,-1.3%,i,?
Cc1ccc(CNC(=O)CSc2nc(C)cc(C)c2C#N)cc1,3.68e-08,i,1.0%,i,?
COc1ccc(OC)c(S(=O)(=O)N(C)CC(=O)N2CCc3ccccc3C2)c1,1e-09,i,-1.9%,i,?
Cc1cc(SCC(=O)c2ccc(Br)cc2)cc(C)[o+]1,1e-09,i,-0.8%[11.5 µM],i,8.9%[11.4 µM]
O=C(OCCCN1CCCC1)C1(c2ccccc2)CCCC1,1e-09,i,nt,i,nt
COc1cc(C)c(C(C)C)cc1S(=O)(=O)NCCCn1ccnc1,2.87e-08,i,-1.5%,i,4.9%
COC(=O)c1ccc(C(=O)OC)c(NC(=O)CSc2nnc(-c3ccccc3Cl)o2)c1,1e-09,i,-2.2%,i,?
CCn1c(SCc2cccc(C(=O)O)c2)nnc1-c1ccccc1,2.05e-08,i,-0.2%,i,6.5%
COCC(C)NC(=O)c1ccccc1OC(C)=O (stereo not drawn),1e-09,i,-0.9%,i,0.3%
CC1CCCN(S(=O)(=O)c2cc(Cl)ccc2Cl)C1 (stereo not drawn),1e-09,i,1.0%,i,?
Cc1cccc(CNc2ncnc3ccc(-c4cccc(C#N)c4)cc23)c1,1.3e-09,i,-0.9%,i,?
CCOc1ccc(NC(=O)CN2CCN(CC(=O)Nc3ccc(F)c(F)c3)CC2)cc1,3.04e-08,i,3.0%,i,-2.1%
COc1cccc(NC2=NCC(=O)N2Cc2cccs2)c1,2.58e-08,i,2.2%,i,-1.6%
CCOc1ccccc1NC(=O)N1CCCC1C(=O)Nc1nnc(CC)s1 (stereo not drawn),1.9e-09,i,-0.1%,i,5.0%
COc1ccc(N(C(C)C(=O)NCc2ccco2)S(C)(=O)=O)cc1 (stereo not drawn),5.7e-09,i,1.5%,i,?
CCn1c(SCC(=O)NC2CCCCC2)nc2c(c1=O)SC(C)C2 (stereo not drawn),1.12e-08,i,-0.2%,i,?
Cc1occc1-c1nnc(SCC(=O)NCc2cccs2)n1-c1ccc(F)cc1,3.54e-08,i,0.7%,i,nt
c1ccc(-n2ncc3c(N4CCN(c5ccccn5)CC4)nc(N4CCCCCC4)nc32)cc1,4.3e-09,i,3.0%,i,3.3%
O=c1[nH]ncc2c3ccccc3n(Cc3ccc(F)cc3)c12,nt,nt,-4.4%,nt,15.8µM*
CCOc1ccc(-c2cn(S(=O)(=O)c3cccc4nsnc34)nc2N)cc1,1e-09,i,1.5%,i,-12.8%
CS(=O)(=O)N1CCC[C@@]2(CCN(c3ccccc3)C2)C1,1e-09,i,2.7%,i,15.4%
Cc1ccc(-c2nnc3ccc(SCC(=O)Nc4cc(C)on4)nn23)cc1,1e-09,i,-0.9%,i,3.3%[11.4 µM]
COc1ccccc1OCC(=O)Nc1ccc(S(=O)(=O)Nc2cc(C)nc(C)n2)cc1,1e-09,i,nt,i,nt
COc1ccc(CCNC(=O)CN(c2ccc(OC)c(OC)c2)S(C)(=O)=O)cc1OC,nt,nt,-0.3%,nt,6.1%[11.4 µM]
Cc1ccc(Cc2c(C)nc3c(C(=O)O)cnn3c2C)cc1,9e-09,i,0.3%,i,-5.0%
CC(C)Cn1c(CN2CCCCC2C)nc2c1c(=O)n(C)c(=O)n2C (stereo not drawn),nt,nt,1.2%,nt,1.1%
Cn1cccc1Cc1nnc(SCC(=O)Nc2ccc(F)cc2)n1CCc1ccccc1,nt,nt,-0.5%,nt,-4.3%
Clc1ccc(SCCn2cncn2)cc1,1e-09,i,0.4%,i,-3.0%
O=C1CN(C(=O)c2ccccn2)c2ccccc2N1,4.36e-08,i,-2.9%,i,?
COCC(C)n1c(C)cc(C(=O)CN2C(=O)NC3(CCCCC3C)C2=O)c1C (stereo not drawn),2e-08,i,-1.2%,i,10.9%
NCCOC[C@H](N)C(=O)O,6.1e-09,i,0.9%[11.5 µM],i,0.2%[11.4 µM]
CCCCOc1cc(C(=O)NCCN(CC)CC)c2ccccc2n1,4.76e-08&3.95e-08&1.48e-08,i,-1.2%,i,-3.0%[25.6 µM]
CCOC(=O)c1sc(NCc2ccco2)c(-c2nc3ccccc3s2)c1N,8.2e-09,i,2.8%,i,-13.4%
COC(=O)c1ccccc1NC(=O)Nc1ccc(C(=O)N2CCCC2)cc1,2.72e-08,i,0.9%,i,1.5%
CCOC(=O)CSc1nc(-c2ccncc2)ccc1C#N,7.26e-08,i,nt,i,nt
CC(=O)NCCNc1ncnc2ccc(-c3ccoc3)cc12,1e-09,i,8.5%,i,5.2%
CCOC(=O)c1c(NC(=O)CNCCO)sc(C)c1C,5.2e-09,i,-1.7%,i,15.0%
O=c1c2ccccc2nc(SCc2cc(F)cc3c2OCOC3)n1Cc1ccco1,2.87e-08,i,-2.6%,i,?
CSc1nnc2c3cc(F)ccc3n(Cc3ccccc3)c2n1,1e-09,i,-1.1%,i,22.1%
COc1ccccc1NC(=O)N1CCN(c2ccccn2)CC1,nt,nt,0.2%,nt,?
COc1ccc(C2CC3CC(c4ccccc4)N2O3)cc1 (stereo not drawn),nt,nt,-1.1%,nt,10.3%[11.4 µM]
CCOC(=O)c1sc(C)c(C(=O)NCCCN2CCOCC2)c1N,3.79e-08,i,2.1%,i,-20.5%
CCOC(=O)CNC(=O)Cn1cnc2c(nnn2-c2ccc(F)cc2)c1=O,1e-09,i,0.0%,i,-2.9%
COC(=O)CCn1nnc(-c2ccc(C(C)C)cc2)n1,3.35e-08,i,-0.6%,i,3.5%
COc1cccc(-c2noc(CCC(=O)NC3CCCCC3)n2)c1,1e-09,i,-0.3%,i,26.5%
O=C(Cn1cc2c(n1)CCCCC2)NCc1cccs1,nt,nt,-3.2%,nt,14.3%
CC1=C(C#N)C(c2ccoc2)C(C(=O)OCc2ccccc2)=C(N)S1 (stereo not drawn),7.1e-09,i,0.8%,i,?
O=C(c1cc(C(F)(F)F)cc(C(F)(F)F)c1)N1CCC2(CC1)CN(c1ccncc1)C2,6.3e-09,i,-1.5%,i,?
C=CC[C@@H](C(=O)O)c1ccccc1,3.7e-08,i,-1.7%[11.5 µM],i,-1.9%[11.4 µM]

# Some of these compounds in order of SMILES length, largest number first.
SMILES,A647 fluor,A488 autofl,AID923,Resorufin autofl,TSHR ag
O=C(c1cc(C(F)(F)F)cc(C(F)(F)F)c1)N1CCC2(CC1)CN(c1ccncc1)C2,6.3e-09,i,-1.5%,i,?
O=c1c2ccccc2nc(SCc2cc(F)cc3c2OCOC3)n1Cc1ccco1,2.87e-08,i,-2.6%,i,?
COC(=O)c1ccccc1NC(=O)Nc1ccc(C(=O)N2CCCC2)cc1,2.72e-08,i,0.9%,i,1.5%
CCOC(=O)c1sc(NCc2ccco2)c(-c2nc3ccccc3s2)c1N,8.2e-09,i,2.8%,i,-13.4%
COc1cccc(-c2noc(CCC(=O)NC3CCCCC3)n2)c1,1e-09,i,-0.3%,i,26.5%
CSc1nnc2c3cc(F)ccc3n(Cc3ccccc3)c2n1,1e-09,i,-1.1%,i,22.1%
COc1ccccc1NC(=O)N1CCN(c2ccccn2)CC1,nt,nt,0.2%,nt,?
COc1ccc(C2CC3CC(c4ccccc4)N2O3)cc1 (stereo not drawn),nt,nt,-1.1%,nt,10.3%[11.4 µM]
CCOC(=O)CSc1nc(-c2ccncc2)ccc1C#N,7.26e-08,i,nt,i,nt
O=C(Cn1cc2c(n1)CCCCC2)NCc1cccs1,nt,nt,-3.2%,nt,14.3%
C=CC[C@@H](C(=O)O)c1ccccc1,3.7e-08,i,-1.7%[11.5 µM],i,-1.9%[11.4 µM]

# Continuation.
SMILES,A647 fluor,A488 autofl,AID923,Resorufin autofl,TSHR ag
CC(=O)OCC1=C(C(=O)O)N2C(=O)[C@@H](NC(=O)Cc3cccs3)[C@@H]2SC1,3.79e-08&1.3e-09,i,-2.0%[25.7 µM],i,-0.1%[25.6 µM]
CCCCOC(=O)c1ccc(NC(=O)CSc2nncn2C)cc1,3.73e-08,i,nt,i,nt
CCCCCCCCCCC(C)(C)C(=O)Nc1c(OC)cc(OC)cc1OC,nt,nt,-1.5%,nt,?
COC(=O)c1ccccc1COn1c(=O)c[n+]([O-])c2ccccc21,1.98e-08,i,0.4%,i,2.3%
Cn1c(=O)c2c(nc(N3CCC(C(N)=O)CC3)n2CCSc2nc3ccccc3s2)n(C)c1=O,5.7e-09,i,nt,i,nt
COc1ccc(CNS(=O)(=O)c2ccc3oc(C(=O)O)c(C)c3c2)cc1,1.2e-09,i,-1.9%,i,0.7%
CC12CC[C@@H]3c4ccc(OS(=O)(=O)O)cc4CC[C@H]3C1CCC2=O (stereo partly drawn),1.92e-08,i,-0.3%[25.7 µM],i,-1.6%[25.6 µM]
COc1ccc2c(c1)Cc1sc(NC(=O)c3cccs3)nc1-2,4.06e-08,i,12.3%,i,7.9%
CNc1ncnc2ccc(-c3cccc(OC)c3)cc12,1.57e-08,i,-0.2%,i,10.2%

# Source: PubChem
